From PubChem
MT1-MMP act inh = blockers of MT1-MMP proenzyme processing, primary screen, HT1080 RFP-PRO-GFP cells, GFP/RFP fluorescence; Matrix metalloproteinase-14 (Homo sapiens), P50281; GFP/RFP ratio fluorescence, overnight; percent of plate control window, DMSO zero; GFP/RFP ratio change, % at 20 µM; 360,000 compounds, 0.061% hits; AID 651647, 2012;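 active = GFP/RFP ratio change of at least 30% with cell ATP level not reduced by more than half and red fluorescence within 50% of control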; also: strong numbers were not always called active
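Material – HT1080 RFP-PRO-GFP cells · Control set – DMSO wells and RFP-L50D-GFP cells · Incubation – overnight cell settling, then overnight compound exposure, 37 °C, 5% CO2 · Compound dosing – single-point 20 µM compound, 1% DMSO · Read-out – GFP/RFP fluorescence ratio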
PABP FP inh = PABP poly(A) RNA binding inhibitors, primary screen, biochemical, fluorescence polarization, uHTS. Polyadenylate-binding protein 1 (Homo sapiens), P11940. inhibition, % at 35 µM. 290,000 compounds, 1% hits;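 active = 50% or more with normal probe brightness, or confirmed in later tests; inconclusive = above 50% with abnormal brightness, or retests that disagree; inactive = below 50% or failed in later tests; about a fifth of its hits are not listed in these tables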;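 also: calls also rest on retests at 20 µM and on dose response follow-up; controls were probe without protein and protein plus probe with vehicle; some compounds called inactive have numbers as strong as hits; many hits fall short of the cut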
eIF4H FP inh = human eIF4H binding inhibitors, primary screen, translation initiation inhibitor project, biochemical, uHTS, fluorescence polarization. 290,000 compounds, 0.94% hits. inhibition, % at 35 µM. eIF4H fluorescence polarization binding assay. Eukaryotic translation initiation factor 4H (Homo sapiens), Q15056. AID 2012, 2009;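 active = 50% or more with normal probe brightness, or confirmed in later tests; inconclusive = above 50% with abnormal brightness, or retests that disagree; inactive = below 50% or failed in later tests; about a fifth of its hits are not listed in these tables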;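 also: calls also rest on retests at 20 µM and on dose response follow-up; 0% = protein and probe with vehicle and 100% = probe without protein; strong numbers were not always called active; many hits fall short of the cut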
HIV Env fusion = inhibitors of HIV-1 Env-driven cell-cell fusion, primary screen, HeLa-JRFL effector, CEM21 target cells, luciferase; 360,000 compounds, 1.1% hits; AID 651610, 2012; inhibition, % at 12.3 µM;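 active = mean replicate inhibition score of at least 50 and every replicate individually at or above 50; inconclusive = only one of the two criteria met; inactive = mean below 50 and not all replicates reaching 50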;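 also: 0% = plate neutral controls and 100% = maraviroc near 300 nM; one replicate is shown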
UUG fidelity = modulators of yeast start codon fidelity, primary screen, whole organism, S. cerevisiae, single point, plate reader; activity score, % at 18.7 µM; 350,000 compounds, 0.13% hits; S. cerevisiae UUG-firefly luciferase reporter, luminescence/redox ratio;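 active = replicate mean at a twofold rise or more, about +100% in these data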;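 also: firefly luciferase made from a UUG start codon reports start codon fidelity; reporter light over untreated wells divided by growth signal over untreated wells; some hits fall short of that in this replicate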
CSC inhib = cancer stem cell viability inhibitors, primary screen, luminescence. cancer stem cell-like cells viability. inhibition, % at 7.5 µM. 300,000 compounds, 1.1% hits. AID 2717, 2010;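 active = mean at 75% or more and at least half the replicates too; inconclusive = mean and replicates disagree; tested in HMLE shEcad cells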;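 also: 0% = median of negative and 100% = median of positive control wells; the first replicate is given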
Rce1 inhib = yeast Rce1p protease inhibitors, primary screen, biochemical, fluorescence, cell-free homogeneous | yeast membranes, quenched prenylated peptide cleavage fluorescence | calls only | 290,000 compounds, 0.27% hits | AID 2563, 2010;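 active = fall in fluorescence gain of 50% or more versus controls, with final raw signal at or below 3038400; inconclusive = same 50% fall but final raw signal above 3038400; inactive = fall in fluorescence gain under 50%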;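 also: plate controls were neutral control wells for no effect and wells lacking membranes for full effect; tested at 10 µM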
Target sequence (Q03530 whole entry, looked up): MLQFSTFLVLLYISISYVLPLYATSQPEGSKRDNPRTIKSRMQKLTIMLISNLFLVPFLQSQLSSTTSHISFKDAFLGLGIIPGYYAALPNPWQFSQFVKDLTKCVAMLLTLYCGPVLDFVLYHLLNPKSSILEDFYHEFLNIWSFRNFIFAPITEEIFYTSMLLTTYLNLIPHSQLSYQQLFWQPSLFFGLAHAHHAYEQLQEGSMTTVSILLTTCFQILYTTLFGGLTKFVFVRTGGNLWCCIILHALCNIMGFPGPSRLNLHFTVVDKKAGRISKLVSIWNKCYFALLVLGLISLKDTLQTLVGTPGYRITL
PABP FP inh retest = second read-out of PABP FP inh, no call of its own (marks repeat the call); inhibition, %; compound at 20 µM; confirmation repeats;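 mean of two retest wells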
MT1-MMP act inh RFP = second read-out of MT1-MMP act inh, no call of its own (marks repeat the call); RFP signal change, %; measured here: RFP expression control read;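 0 = vehicle wells; hits needed this value within 50% of zero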
The depositor's hits bear a star; i = inactive; ? = inconclusive; nt = not tested or not shown; & = joins results of further samples; [ ] = remark or other dose.

SMILES	MT1-MMP act inh	MT1-MMP act inh RFP	PABP FP inh	eIF4H FP inh	HIV Env fusion	UUG fidelity	CSC inhib	Rce1 inhib	others
O=C(CN1CCN(Cc2ccccc2)CC1)Nc1nnc(C(F)(F)F)s1	0	3	8	9	-3	-11	nt	i
CC(=O)NC(c1ccccc1)c1nc(-c2cc(F)cc(F)c2)cs1 (stereo unspecified)	-3	-2	nt	nt	3	-10	nt	nt
Cc1c(Cl)c(C(=O)NC2CCCC2)nn1C	-1	1	10	2	-76	-6	-15	i
CC(=O)Nc1ccc(NC(=O)C(C)OC(=O)c2ccc3c(c2)OCCO3)cc1 (stereo unspecified)	-3	-1	0	-6	-5	-2	-16	i
COc1cccc(-c2cnc(C(O)c3ccc(Cl)c(F)c3)[nH]2)c1 (stereo unspecified)	2	-7	nt	nt	7	-18	nt	nt
COc1cc(C(c2nnnn2C(C)(C)C)N2CCN(C)CC2)cc(OC)c1OC (stereo unspecified)	1	4	-2	5	nt	-10	-16	i
O=C(Nc1cccc(O)c1)c1ccc2c(c1)C(=O)N(Cc1ccco1)C2=O	1	1	28	2	3	-16	15	i
COc1ccc(Sc2ccc(-c3nc4cnccn4c3NC3CCCCC3)cc2OC)cc1	-18	-7	nt	nt	-25	-12	104*	nt
O=C(N/N=C/c1ccc(Cl)cc1)c1ccc2nc[nH]c2c1	-3	-6	nt	nt	-23	-11	nt	nt
O=C(Oc1ccc(/C=N/NC(=O)c2ccccn2)cc1)c1cccc(F)c1	-1	1	-2	3	0	-13	-11	i
CCOc1ccc(-c2noc(-c3ccncc3)n2)cc1OCC	3	-1	10	-10	-13	-20	8	i
Nn1c(SCC(=O)NCCC2=CCCCC2)nnc1C1CCCCC1	-5	-2	9	6	-44	-7	-3	i
CCc1ccccc1NC(=O)Cn1nc(C)n2cccc2c1=O	-2	3	2	-12	1	4	4	i
COc1cccc(C(=O)Nc2c(C(N)=O)oc3ccccc23)c1	-3	-4	-8	-2	14	-17	4	i
Cc1ccccc1OCCn1cc(C(=O)C(=O)N2CCOCC2)c2ccccc21	2	-4	-4	-5	14	nt	-8	i
C=CCC1=C/C(=C\c2c(N)n3nc(CC(=O)N4CCOCC4)sc3nc2=O)C=C(OC)C1=O	1	49	44	8	15	-16	-2	i
COc1ccc(S(=O)(=O)NC(C)C(=O)NCc2ccc3c(c2)OCO3)cc1OC (stereo unspecified)	1	-4	9	2	-2	-13	1	nt
COc1ccc(-c2cc(C(=O)Nc3cc(C)nn3-c3ccccc3)no2)cc1OC	4	3	1	1	17	-12	-5	i
COc1cc2c(cc1OC)-c1cc(Nc3ccccc3)nc(=O)n1CC2	6	1	3	4	13	-8	nt	i
CC(=O)c1ccccc1OC(=O)c1ccc(-c2ccccc2)cc1	-8	-3	nt	nt	-6	-23	nt	i
CCOC(=O)c1cnc(-c2ccc(C(F)(F)F)cn2)[nH]c1=O	4	1	10	14	-4	-24	17	i
NC(=O)CN1C(=O)C(O)(CC(=O)/C=C\C=C\c2ccccc2)c2ccccc21 (stereo unspecified)	2	5	6	6	-1	nt	3	i
CCC(=O)Nc1cccc(NC(=O)c2cccnc2)c1	-1	2	-10	-4	18	-15	-18	i
Cn1c(CNC(=O)Nc2cccc(Cl)c2)nnc1SCc1ccccc1	2	-7	5	-4	nt	-14	-4	i
O=C(Nc1ccc(Oc2ccccc2)nc1)C1CCN(Cc2ccccc2)CC1	3	-4	0	-5	5	-13	2	i
CS(=O)c1ccccc1COC(=O)Nc1ccc(Cl)cc1 (stereo unspecified)	1	-4	-9	0	nt	-13	3	i
CCOC(CCNC(=O)CCC(=O)Nc1ccc2nc(N3CCN(C)CC3)cc(C)c2c1)OCC	-4	1	-4	-3	-10	-35	-6	i
CC(=O)Nc1ccc(Sc2ncccc2C(=O)Nc2ccc(F)cc2)cn1	-6	-16	-11	4	nt	9	-1	i
COc1ccc(S(=O)(=O)N2CCc3ccccc32)cc1C(=O)NCc1ccco1	-3	-3	nt	nt	-26	-14	nt	nt
COC(=O)N1N=C(c2ccccc2)CC1(O)C(F)(F)F (stereo unspecified)	5	9	4	1	nt	nt	2	i
COc1cc(NC(=O)C2CC(c3cccc(Br)c3)=NO2)cc(OC)c1OC (stereo unspecified)	1	-3	4	-14	18	0	-3	nt
CCCCc1nc(NCC2CCCO2)c(C#N)c2c1COC(C)(C)C2 (stereo unspecified)	-10	-8	-10	10	0	-13	30	i
COC(=O)C(O)(NC(=O)c1ccncc1)C(F)(F)F (stereo unspecified)	3	4	-6	-9	2	nt	12	i
CCOC(=O)C(=O)Nc1ccc(OC)c(Cl)c1	4	4	-3	0	15	nt	7	i
CCc1nnc(NC(=O)CN2CCN(C3CCCCC3)CC2)s1	2	5	8	-8	-6	-8	-4	i
CNC(=S)NC1(C)CCS(=O)(=O)C1 (stereo unspecified)	0	-6	-10	7	4	8	4	i
Cc1ccccc1CC1(CO)CCCN(C(=O)c2ccc3ncccc3c2)C1 (stereo unspecified)	-5	-6	-3	-4	8	3	-12	i
COc1cc(OC)c(OC)cc1C#N	-1	1	-7	7	nt	-10	-21	i
C#CCOCCOCCOCCNc1nc(N2CCN(C(=O)C([C@@H](C)O)n3cc([C@@H](N)CCCCN)nn3)CC2)nc(N2CCN(C(=O)[C@H](CC(N)=O)n3cc([C@@H](N)C(C)C)nn3)CC2)n1 (stereo partly specified)	1	4	nt	nt	29	-2	nt	nt
O=C(CCc1nnc(CCCCc2ccccc2)o1)NC(c1cccnc1)C(F)(F)F (stereo unspecified)	-3	-6	-1	-12	14	nt	-3	i
CCOC(=O)c1c(NC(=O)CSc2nc3ccc(C)cc3[nH]2)sc2c1CC(C)(C)NC2(C)C	-6	-7	nt	nt	-7	-15	78*	i
O=C(N/N=C/c1cccs1)c1ccc(NC(=O)c2ccccc2Cl)cc1	7	2	-18	-7	3	nt	8	i
O=C(COC(=O)C1CC1)NCCNC(=O)COC(=O)C1CC1	6	2	nt	nt	-4	-10	-7	i
CCCc1cnc(Nc2nc(C(N)Cc3ccc(OC)cc3)cs2)nc1 (stereo unspecified)	-2	3	nt	nt	-48	-4	nt	nt
COCC(=O)N[C@H]1C=C[C@@H](CC(=O)NCc2ccccc2OC)O[C@@H]1CO	0	4	nt	nt	-4[16.7 µM]	-6	nt	nt
O=C(CN1C(=O)c2ccccc2S1(=O)=O)Nc1ccc(S(=O)(=O)N2CCCCC2)cc1	9	6	-9	-2	nt	0	-17	i
Cc1cc(=O)n2nc(N3CCCC3C(=O)Nc3ccc(C(C)C)cc3)sc2n1 (stereo unspecified)	5	5	-18	1	nt	-3	-10	i
COc1ccc(C2=NS(=O)(=O)N(C)C(C(=O)Nc3ccc(C)cc3)=C2)cc1	2	-9	-3	-3	nt	-6	7	i
COc1ccc(NC(=O)c2oc3ccccc3c2NC(=O)C2CC2)c(OC)c1	3	0	-8	-4	-1	-11	-5	i
CCOc1ccccc1NC(=O)CN1c2cccc3cccc(c23)S1(=O)=O	-2	-6	nt	nt	5	-13	5	nt
CCOc1cc(C(=O)OC(C)C(=O)Nc2ccc(S(N)(=O)=O)cc2)ccc1OCC(=O)N1CCOCC1 (stereo unspecified)	2	1	nt	nt	nt	10	-4	i
COc1ccc(-n2nc(C(=O)NCC(=O)N3CCCCCC3)c3ccccc3c2=O)cc1OC	4	3	-4	-3	-18	6	-10	i
COc1ccccc1N(CC(=O)NCC1CCCO1)C(=O)CNS(=O)(=O)c1ccc(Cl)cc1 (stereo unspecified)	0	1	-5	-4	-6	5	-14	i
Cc1ccc(-c2noc(CCC(=O)Nc3ccc4c(c3)OCO4)n2)cc1	7	1	-1	0	nt	8	-4	i
CCCN(C)C[C@H]1Oc2cc(C#Cc3ccc(F)cc3)ccc2S(=O)(=O)N([C@H](C)CO)C[C@@H]1C	0	-3	nt	nt	-1	44&14&2	nt	nt
O=C(NC1CCCCC1)c1cccnc1Sc1ccccc1	-1	-4	0	-3	-2	nt	4	i
O=C(Nc1ccncc1)c1ccc(Cl)c(S(=O)(=O)N2CCc3ccccc32)c1	11	-28	nt	nt	90*	4	30	i
CN(C)c1ccc(/C=C/c2ccc3ccccc3[n+]2C)cc1	87	71	-11	-16	nt	127*	nt	i
O=C(NNC(=O)c1ccc(SCC2CCCO2)c([N+](=O)[O-])c1)c1ccc(F)cc1 (stereo unspecified)	-1	-1	-7	-8	-33	-2	4	i
CCOc1cc(-c2ccc(N)c(OCC)c2)ccc1N	-20	-1	104*	?	nt	1	32	i	PABP FP inh retest=105*
Continuation.
SMILES	MT1-MMP act inh	MT1-MMP act inh RFP	PABP FP inh	eIF4H FP inh	HIV Env fusion	UUG fidelity	CSC inhib	Rce1 inhib	others
COc1cccc(C(C)(O)c2nc(-c3csc4ccccc34)cs2)c1 (stereo unspecified)	-1	-2	nt	nt	29	-7	nt	nt
O=C1CC(Cc2ccccc2)C(=O)N1CCc1ccc2c(c1)OCO2 (stereo unspecified)	3	-4	1	-3	nt	-8	1	i
O=C1c2ccc(-c3ccc(Cl)c(C(F)(F)F)c3)cc2S(=O)(=O)c2cccc(C(=O)N3CCN(c4ccc(Cl)cn4)CC3)c21	3	-8	nt	nt	-12	-12	nt	nt
CCN(CC)S(=O)(=O)c1ccc2[nH]c(=O)cc(C(=O)NCC(c3ccco3)N3CCCC3)c2c1 (stereo unspecified)	2	2	nt	nt	-6	nt	-3	i
O=C(Cn1nnc(-c2cccs2)n1)OC1CCCCC1	2	5	24	-11	-18	-17	-5	i
CC1(OC(=O)CCc2ccccc2)C(=O)C=C2C=C(c3ccc(C#N)cc3)N(c3ccccc3)C=C2C1=O (stereo unspecified)	-7	1	13	24	17	-5	4	i
CCn1c(SCC(=O)O)nnc1-c1ccccc1OC	-1	4	-3	-8	-10	-19	17	i
C[C@H](CCC(=O)O)[C@H]1CC[C@H]2[C@@H]3CC[C@@H]4C[C@H](O)CC[C@]4(C)[C@H]3C[C@H](O)[C@]12C	-1&4&2	1&4&6	nt	nt	27&23&-20	6&1&12	-2	i
CC(C)c1ccc(S(=O)(=O)N2CCN(C(=O)CN3C(=O)NC(C)(c4ccccc4)C3=O)CC2)cc1 (stereo unspecified)	-4	-2	nt	nt	9	7	-9	i
CCn1c2ccccc2c2cc(NC(=O)c3ccccc3-c3ccccc3C(=O)O)ccc21	-4	0	19	0	13	-3	30	i
O=C(NCCN1CCNC1=O)C1CCC(=O)N(CCc2ccccc2)C1 (stereo unspecified)	-6	-2	-2	0	-15	-9	-2	i
O=C(CSc1nc2c(cnn2-c2ccccc2)c(=O)[nH]1)c1ccc(Cl)cc1	10	-2	5	19	nt	4	-5	i
Cc1cc(NC(=O)CSc2nccn2C)no1	-1	2	-10	4	19	nt	16	i
CCCCCC(=O)N1CCN(S(=O)(=O)c2ccc3c(c2)OCCCO3)CC1	1	-4	nt	nt	2	-1	0	i
